CDC25B-CDK2 inh = human CDC25B-CDK2/CyclinA binding inhibition; P30305+P24941; AID 1259370; HTRF CDC25B-CDK2/CyclinA binding, anti-His/anti-Flag; active compounds read high; z-score (test concentration not listed); hit rate 0.72% among 94,000;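 also: score is relative to mean and SD of negative controls; strong numbers were not always called active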
TAR Tat displ = HIV-1 TAR-Tat binding disruption; HIV-1 TAR RNA, Tat peptide displacement FRET; active compounds read high; hit rate 0.6% among 100,000; z-score (no concentration beside the values);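 also: score is relative to mean and SD of negative controls; some compounds called inactive have numbers as strong as hits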
Starred values were filed as active, the others as inactive; / = no result given.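 The calls were made as follows: active = z-score from 3 up in half or more of its runs; inactive = the rest.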

SMILES | CDC25B-CDK2 inh | TAR Tat displ
CCCCn1cc(S(=O)(=O)c2ccc(C)cc2)c(=O)c2cc(C)ccc21 | -1.23 | 1.86
CCOc1cc(C2CC(=O)NC3=C2C(=O)C(C(=O)OC)C(C)C3)cc(Cl)c1O (stereo not drawn) | -2.6 | -0.21
O=C1NN=C2C3CCC4CC12CC1(C3)C(=O)NN=C41 | 0.54 | /
Cc1ccc(CCNc2ncnc3onc(-c4ccc(F)cc4)c23)cc1 | / | 0.08
O=c1c(-c2ccc(Cl)cc2)c(N2CCc3ccccc3C2)c1=O | / | -0.11
Clc1ccc2nonc2c1 | -0.25 | /
C=CCOC(=O)C1=C(C)Nc2nc3ccccc3n2C1c1ccc(OC)c(OC)c1 (stereo not drawn) | -1.49 | 2.78
Cc1ccc(S(=O)(=O)N(C)CCOCCN(C)S(=O)(=O)c2ccc(C)cc2)cc1 | -0.7 | 0.68
Cc1c(C(=O)O)sc2ncnc(NCc3cccs3)c12 | / | 9.75*
Cc1nc(-c2ccc(S(=O)(=O)N(C)Cc3ccccc3)cc2)co1 | / | 0.26
Cc1cc(-c2ccc(C)c(S(=O)(=O)NC(C)(C)C)c2)on1 | / | 0.59
O=C(c1ccco1)N1CCN(S(=O)(=O)c2ccc(-n3cnnn3)cc2)CC1 | -1.8 | 0.88
COc1ccc(C2=Nc3ccccc3NC(c3cccs3)=N2)cc1 | 0.57 | 0.51
Cc1nc(-c2cccc(Cl)c2)cs1 | -0.47 | 0.75
CCOC(=O)c1c(C)[nH]n2c(-c3cccnc3)nnc12 | -1.48 | /
O=C(c1cccn1-c1nnc(N2CCCCC2)s1)N1CCCCC1 | / | 1.29
O=C(O)CCc1nc2onc(-c3ccc(F)cc3)c2c(=O)[nH]1 | -1.58 | -0.39
CCOC(=O)N1CCC(Nc2nc(N3CCCC3)nc(N3CCCC3)n2)CC1 | 0.33 | -1.53
O=c1c(-c2nc3ccccc3s2)coc2c(CN3CCCCC3)c(O)ccc12 | -2.41 | 1.89
Cc1ccc(C(=O)CSc2nc(=O)n(C3CCCCC3)c3c2CCC3)cc1 | 1.17 | 1.19
O=c1c2ccccc2nc2c(-c3nc(-c4ccc5c(c4)OCO5)no3)cccn12 | 0.34 | -0.08
CCc1nnc(NC(=O)CSc2nnc(Cc3c(C)nc4cc(C)ccn4c3=O)n2C)s1 | 0.44 | -0.1
CCc1nc(-c2csc(S(=O)(=O)Nc3ccc(Cl)cn3)c2)no1 | / | 1.21
CC(C)(C)C1CCc2c(sc(NC(=O)c3cccs3)c2C(=O)N2CCCC2)C1 (stereo not drawn) | -0.87 | -0.41
Cc1ccc(-c2cc(C(F)(F)F)n3nc(C)c(C#N)c3n2)cc1 | -0.17 | -1.13
O=C(Nc1ccc(Cl)cc1F)C1CCN(c2ccc(-c3cccs3)nn2)CC1 | / | 0.54
O=C(NCC(c1cccs1)S(=O)(=O)c1ccc(F)cc1)C(=O)NC1CCCCC1 (stereo not drawn) | / | 2.24
Cc1nnc2sc(-c3cc(N)ccc3Cl)nn12 | -1 | 2.97
Cc1ccc(NS(=O)(=O)c2ccc3c(c2)C(C)(C)C(=O)N3C)cc1F | / | 1.42
O=C(CCS(=O)(=O)c1cc(Br)cc2c1N(C(=O)C1CC1)CC2)N1CCCCCC1 | -1.89 | /

Record cards (already shown):
Entry for Cc1nnc2sc(-c3cc(N)ccc3Cl)nn12 : CDC25B-CDK2 inh = -1; TAR Tat displ = 2.97
Entry for Cc1ccc(NS(=O)(=O)c2ccc3c(c2)C(C)(C)C(=O)N3C)cc1F : CDC25B-CDK2 inh = /; TAR Tat displ = 1.42
Entry for Cc1ccc(-c2cc(C(F)(F)F)n3nc(C)c(C#N)c3n2)cc1 : CDC25B-CDK2 inh = -0.17; TAR Tat displ = -1.13

Carrying on:
SMILES | CDC25B-CDK2 inh | TAR Tat displ
CCOC(=O)c1c(S(=O)(=O)N2CCCC(C(=O)NCCC3=CCCCC3)C2)c(C)n(C)c1C (stereo not drawn) | / | 0.6
O=C(NCc1ccco1)c1nn2c(c1Cl)NC(c1ccc(F)cc1)CC2C(F)(F)F (stereo not drawn) | -0.48 | -0.48
COCCNc1c(-c2cccc(F)c2)nc2sc3cc(OC)ccc3n12 | / | 1.18
Cc1cc(C)n2c(SCc3cc(=O)n4ccsc4n3)nnc2n1 | / | 2.4
C=CCC(N)(CC=C)c1ccc(C)cc1 | -1.57 | 0.84
Cn1c(Cn2c(=O)sc3ccccc32)nnc1SCC(=O)N1CCN(c2ccccc2)CC1 | -0.83 | /
COc1cccc2c1c(NC(=O)c1cc3ccccc3s1)nn2C | -1.88 | /
O=C1C(=O)N(c2cccnc2)C(c2ccc(F)cc2)/C1=C(\O)c1ccc(Cl)cc1 (stereo not drawn) | -5.72 | 1.32
CNC(=S)N1CCN(c2ccccc2OC)CC1 | -1.75 | /
N#Cc1cccc(N=C(N)N=C(N)N)c1 | -0.69 | /

For reference, part of the list above:
SMILES | CDC25B-CDK2 inh | TAR Tat displ
CCOC(=O)N1CCC(Nc2nc(N3CCCC3)nc(N3CCCC3)n2)CC1 | 0.33 | -1.53
O=c1c(-c2nc3ccccc3s2)coc2c(CN3CCCCC3)c(O)ccc12 | -2.41 | 1.89
Cc1ccc(C(=O)CSc2nc(=O)n(C3CCCCC3)c3c2CCC3)cc1 | 1.17 | 1.19
O=c1c2ccccc2nc2c(-c3nc(-c4ccc5c(c4)OCO5)no3)cccn12 | 0.34 | -0.08
CCc1nnc(NC(=O)CSc2nnc(Cc3c(C)nc4cc(C)ccn4c3=O)n2C)s1 | 0.44 | -0.1
CCc1nc(-c2csc(S(=O)(=O)Nc3ccc(Cl)cn3)c2)no1 | / | 1.21
CC(C)(C)C1CCc2c(sc(NC(=O)c3cccs3)c2C(=O)N2CCCC2)C1 (stereo not drawn) | -0.87 | -0.41
Cc1ccc(-c2cc(C(F)(F)F)n3nc(C)c(C#N)c3n2)cc1 | -0.17 | -1.13
O=C(Nc1ccc(Cl)cc1F)C1CCN(c2ccc(-c3cccs3)nn2)CC1 | / | 0.54
O=C(NCC(c1cccs1)S(=O)(=O)c1ccc(F)cc1)C(=O)NC1CCCCC1 (stereo not drawn) | / | 2.24
Cc1nnc2sc(-c3cc(N)ccc3Cl)nn12 | -1 | 2.97
Cc1ccc(NS(=O)(=O)c2ccc3c(c2)C(C)(C)C(=O)N3C)cc1F | / | 1.42
O=C(CCS(=O)(=O)c1cc(Br)cc2c1N(C(=O)C1CC1)CC2)N1CCCCCC1 | -1.89 | /
CCOC(=O)c1c(S(=O)(=O)N2CCCC(C(=O)NCCC3=CCCCC3)C2)c(C)n(C)c1C (stereo not drawn) | / | 0.6
O=C(NCc1ccco1)c1nn2c(c1Cl)NC(c1ccc(F)cc1)CC2C(F)(F)F (stereo not drawn) | -0.48 | -0.48
COCCNc1c(-c2cccc(F)c2)nc2sc3cc(OC)ccc3n12 | / | 1.18
Cc1cc(C)n2c(SCc3cc(=O)n4ccsc4n3)nnc2n1 | / | 2.4
C=CCC(N)(CC=C)c1ccc(C)cc1 | -1.57 | 0.84
Cn1c(Cn2c(=O)sc3ccccc32)nnc1SCC(=O)N1CCN(c2ccccc2)CC1 | -0.83 | /
COc1cccc2c1c(NC(=O)c1cc3ccccc3s1)nn2C | -1.88 | /
O=C1C(=O)N(c2cccnc2)C(c2ccc(F)cc2)/C1=C(\O)c1ccc(Cl)cc1 (stereo not drawn) | -5.72 | 1.32
CNC(=S)N1CCN(c2ccccc2OC)CC1 | -1.75 | /
N#Cc1cccc(N=C(N)N=C(N)N)c1 | -0.69 | /

Additional entries.
SMILES | CDC25B-CDK2 inh | TAR Tat displ
Cc1ccc(Cn2c(SCC(=O)O)nc3c2c(=O)n(C)c(=O)n3C)cc1 | 0.6 | 0.04
COCCOC(=O)C1=C(C)NC2=C(C(=O)CC(c3cccs3)C2)C1c1ccc(O)c(OC)c1 (stereo not drawn) | -1.99 | -0.39
COc1ccc(C2=Cc3cc(OC)c(OC)cc3C(=C(Cl)Cl)O2)cc1OC | -2.51 | /
Cc1ccc(-c2nn3c(=O)c(NC(=O)c4ccccc4)cnc3o2)cc1 | / | 1.75
Cn1c(SCC(=O)N=S(C)(=O)c2ccc(Cl)cc2)nnc1C(F)(F)F (stereo not drawn) | -2.7 | /
COc1ccccc1N1C(=O)C2C(c3cccs3)NC(CC(C)C)(C(=O)O)C2C1=O (stereo not drawn) | 0.03 | 0.57
CC1(C)CC(=O)C(CCC#N)(CCC#N)C(=O)C1 | -1.48 | /
Cc1c(C(=O)N2CCC3(CC2)OCCO3)oc2ccc3c(c12)C(=O)CC1(CCCCC1)O3 | -1.87 | /
COc1ccc(OC)c(S(=O)(=O)N2CCCC2c2ccco2)c1 (stereo not drawn) | -2.16 | -0.81
CCSc1ncc2c(=O)n(CC(=O)NCc3ccc4c(c3)OCO4)cnc2n1 | / | 12.8*
CCOC(=O)/C=C/C(=O)Nc1ccccc1-c1ccccc1NC(=O)/C=C/C(=O)OCC | -0.77 | /
O=C(NC1Cc2ccccc2C1)c1cncc(Br)c1 | 0.28 | /
Cc1c2c(c(C)n1C)C(C(=O)NC1CCC(C)CC1)N(c1ccc(Cl)cc1)C2=O (stereo not drawn) | -2.06 | 2.82
CCCN(Cc1cccs1)C(=O)Nc1sc2c(c1C(=O)OCC)CCCC2 | 1.02 | -0.68
COc1ccc(C(=O)CCC(=O)CCC(=O)O)cc1 | 1.2 | 0.87
O=C(Cn1c(=O)sc2ccccc21)NCCN1CCc2ccccc2C1 | -1.13 | /
Cc1cccc(-n2cc(-c3ccccc3)c3c(NC4CC4)ncnc32)c1 | -1.82 | 1.3
CCn1c(C(=O)N2CCCC(C(=O)N3CCC(Cc4ccccc4)CC3)C2)cc2sccc21 (stereo not drawn) | -1.62 | /
Cc1cccc(-c2nc(CSc3nnc(C)n4c3cc3sccc34)c(C)o2)c1 | / | 2.48
COc1ccc(CNc2ncn[nH]2)cc1OC | -1.13 | 2.6
O=S(=O)(c1ccc2[nH]c3c(c2c1)CCCC3)N1CCc2ccccc21 | / | 0.07
CCN1C=NS(=O)(=O)c2ccccc21 | -1.63 | /
CN1C(=O)c2cc(C(=O)NCCC3=CCCCC3)nn2CC1(C)C(=O)NC1CCCCC1 (stereo not drawn) | / | 1.04
O=C(CSc1ncn[nH]1)Nc1ccccc1C(F)(F)F | 0.43 | /
CNC[C@H](O)c1cccc(O)c1 | -1.31 | -5
O=C(O)c1c(-c2cccs2)nnc2ccccc12 | -0.46 | /
CC(C)=CC1C(C(=O)O)C1(C)C (stereo not drawn) | / | 2.4
CNc1ccc(CC(NC(=O)C(CC(C)C)NC(=O)OC(C)(C)C)C(=O)OCc2ccccc2)cc1 (stereo not drawn) | -0.96 | /
O=C(Nc1ccc2c(c1)OCCO2)Nc1nnc(CC(=O)N2CCCCC2)s1 | / | 1.34
COc1ccc2c(c1)C=C(C(=O)NC(C)C)CO2 | / | 0.7
COCCN1CNc2c(c(=O)n(C)c(=O)n2C)C1 | -1.75 | 0.17
COc1ccccc1-c1nnc2sc(-c3ccc(F)cc3)nn12 | -1.22 | 1.67
Cc1ccc(CN2C(=O)c3oc4ccc(Br)cc4c(=O)c3C2c2cccc(O)c2)cc1 (stereo not drawn) | 1.45 | 1.18
O=C(Cn1c(-c2ccccc2)cc(=O)n2ncnc12)N/N=C/c1ccc2c(c1)OCO2 | -1.62 | /
CC(=O)N(c1ccc(Br)cc1)C1SC(=O)N(c2ccccc2)C1=O (stereo not drawn) | -0.81 | 1.87
Cn1c(=O)c2c(-c3ccccc3Br)n(C(CO)(CO)CO)cc2n(C)c1=O | -0.37 | -0.03
CS(=O)(=O)Nc1ccc(-c2noc(COc3ccc(Cl)cc3)n2)cc1 | / | 1.5
CCOCCOC(=O)C1=C(C)NC2=C(C(=O)C(C(=O)OC)C(C)C2)C1c1ccc2c(c1)OCO2 (stereo not drawn) | -1.28 | /
COCC(C)Nc1ncnc2c1c(-c1ccccc1)cn2-c1ccc(OC)cc1 (stereo not drawn) | 1.32 | /
O=c1c(-c2ccccc2)cc(-c2ccccc2)nn1Cc1ccccc1F | -2.38 | /
COc1ccc(CCN2C(=O)c3[nH]nc(-c4ccccc4O)c3C2c2ccc(O)c(OC)c2)cc1 (stereo not drawn) | 0.04 | 0.43
CCOC(=O)c1nc(NC2CCCC2)c2ccccc2n1 | / | 0.73
Clc1ccc(N2CCCC2)nn1 | 0.42 | 0.92
O=C1c2cccc3cccc(c23)C(=O)N1CCC(=O)n1cnc2ccccc21 | -2.71 | /
Cc1ccc(Cc2c(C)[nH]c3[nH]n(-c4ccccc4)c(=O)c3c2=O)cc1 | -6.71 | -7.03
CCOC(=O)c1nc(NCc2ccc(C)o2)c2ccccc2n1 | / | 0.27
CC(C)(C)c1cccc(NC(=S)N2CCSCC2)c1 | -0.05 | /

Hits appear at their usual frequency; about 0.97% have a hit in one of these screens.
